TRPV1 PAM = enhances activation of the human vanilloid receptor TRPV1; Q8NER1; TRPV1-expressing cells, Fluo-8 calcium influx, capsaicin EC20 potentiation; host cell line not named in the record; control for the full effect not named in the record; potentiation, % at 8.33 µM; 320,000 compounds, 0.02% hits; AID 540277; active means potentiation above 80%; inconclusive means 30% to 80%; inactive means below 30%; further: 0% is about no effect
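TRPV1-expressing cells were cultured overnight at 35.5C and loaded with Fluo-8 calcium dye for 40 to 90 min at room temperature. After a 10 s baseline, compound was added and calcium influx was read kinetically for 3 min (ex 480/em 520 nm).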
gsp ag = activates gsp, the McCune-Albright syndrome mutation. gsp mutant cells, cAMP HTRF, 30 min; control for the full effect not named in the record. Potency, µM (titrated, usually from 76.9 µM), inactives show at the highest dose activation (cAMP increase), hits mostly activators. 340,000 compounds, 0.13% hits. AID 624287; active = well fitted activation curve with a large enough effect; inconclusive = small, poorly fitted or top-dose-only effect, or another doubt; inactive = no such curve, though single readings can be large or run the other way; cell line not stated here;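 further: phosphodiesterase inhibitor Ro 20-1724 added with compounds to block cAMP breakdown; potency means the concentration at half of the fitted maximal effect; nearly all actives have a fitted effect of over 60% in size; about a fifth of the inactives were tested at one dose only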
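Cells in DMEM/10% FBS with G418 were pretreated with compounds in DMSO plus […] (300 uM stock) for 30 min at 37C. cAMP was measured by HTRF (cAMP-d2 plus anti-cAMP antibody-K) after 30 min at room temperature.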
TRPML1 inh = inhibitors of human TRPML1 channel; Q9GZU1; TRPML1-inducible cells, Ca2+ dye fluorescence, FDSS; hits give low values; inhibition of EC80 agonist-evoked calcium signal; activity change, negative = inhibition, % (test concentration not listed); 390,000 compounds, 0.02% hits; AID 624415; in the data active means activity change below about -50%; inconclusive means about -30% to -50%; inactive means above about -30%;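 further: stimulus is agonist 54-4 at its EC80 concentration; on the % scale 0 is the no-effect control and ±100 the full control effect; compound concentration not given in the record; the text of the record puts the active cut at -80%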
Target sequence (Q9GZU1 whole entry, looked up): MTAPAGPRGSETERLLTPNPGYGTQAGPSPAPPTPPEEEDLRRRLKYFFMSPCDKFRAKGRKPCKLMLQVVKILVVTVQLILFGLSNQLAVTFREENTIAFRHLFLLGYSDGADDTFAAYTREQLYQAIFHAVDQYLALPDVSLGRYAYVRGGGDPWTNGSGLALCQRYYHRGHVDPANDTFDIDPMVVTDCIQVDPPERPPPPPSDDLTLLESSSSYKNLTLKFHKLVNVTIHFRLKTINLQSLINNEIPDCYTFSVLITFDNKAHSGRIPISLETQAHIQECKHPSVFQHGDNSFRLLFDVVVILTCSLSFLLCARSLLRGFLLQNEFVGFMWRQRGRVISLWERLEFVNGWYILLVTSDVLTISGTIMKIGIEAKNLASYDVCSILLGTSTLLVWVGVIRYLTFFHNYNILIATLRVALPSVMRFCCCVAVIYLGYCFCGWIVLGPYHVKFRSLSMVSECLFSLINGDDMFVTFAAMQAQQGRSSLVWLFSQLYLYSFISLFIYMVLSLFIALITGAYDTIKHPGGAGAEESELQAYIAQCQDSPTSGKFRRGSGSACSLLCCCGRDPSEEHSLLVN
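TRPML1-DL cells, Tet-induced overnight (~16 h, 37 °C) at 1,500 cells/well, were loaded with Ca8 no-wash dye plus quencher for 45-90 min at room temperature. Compounds were pinned during FDSS kinetic reading; agonist 54-4 at EC80 (4 uM final) then added.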
Sfp PPTase inh = inhibitors of Bacillus subtilis Sfp phosphopantetheinyl transferase; Q9F4F7; Biochemical Sfp PPTase activity, qHTS; Potency, µM, for inactives: max response, negative = inhibition, actives largely listed as inhibitors; 310,000 compounds, 3.5% hits; AID 1490; active means well fitted inhibition curve with a large enough effect; inconclusive means small, poorly fitted or top-dose-only effect, or another doubt; inactive means no such curve, though single readings can be large or run the other way;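 further: the enzyme is Sfp with the accession as filed and its product quenches rhodamine fluorescence; potency means the concentration at half of the fitted maximal effect; 0% = enzyme reaction without inhibitor and -100% = no enzyme wells; top concentration of the series not given in the record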
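After 15 min at room temperature with compound, 15 nM Sfp received 5 uM rhodamine-CoA plus 12.5 uM BHQ-2-ybbR (50 mM Hepes pH 7.6, 10 mM MgCl2). Rate came from the fluorescence difference over 30 min, ex 525/em 598 nm.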
Menin MLL FP FL = inhibitors of human menin-MLL interaction, wild-type MLL peptide; Fluorescence polarization, fluorescein-MLL peptide displacement from menin; FP activity change, % at 61.4 µM; 290,000 tested, under 10 active; AID 1766; inconclusive = falling polarisation curve, or a change in total fluorescence; inactive = total fluorescence flat and polarisation flat or rising; no compound was filed as active; the % refers to the polarisation; negative = inhibition;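 further: % of control where 0% means no effect; inhibitors lower the polarisation; unlabelled MLL peptide was the positive control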
ClpP mod = qHTS Assay for Activators of ClpP; Potency, µM (doses to about 57.5 µM), for inactives: at the top dose activity change, negative = active; 340,000 compounds, 1.9% hits; purified B. subtilis ClpP, FRET peptide cleavage, 20 min; AID 651965, 2013; active = well fitted falling curve with a large enough effect; inconclusive = small, poorly fitted or top-dose-only effect; inactive = no such curve, though single readings can be large or run the other way; further: potency means the concentration at half of the fitted maximal effect; the source files actives as falling curves though it sought activators and does not explain the sign; nearly all actives have a fitted effect of over 65% in size; many hits overshoot -100%
Target sequence (P80244 whole entry, looked up): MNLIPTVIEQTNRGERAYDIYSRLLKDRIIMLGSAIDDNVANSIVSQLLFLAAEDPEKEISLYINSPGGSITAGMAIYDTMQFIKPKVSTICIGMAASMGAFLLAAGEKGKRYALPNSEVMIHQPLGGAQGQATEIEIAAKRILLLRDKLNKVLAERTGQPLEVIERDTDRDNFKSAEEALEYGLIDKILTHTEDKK
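Buffer: 100 mM Tris/HCl pH8, 100 mM KCl, 0.05% low protease BSA, 2.5% glycerol, 0.01% Tween-20. ClpP 10 microg/mL final; 20 min RT; delta FRET normalized to ADEP and DMSO controls.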
gsp antagonist = antagonizes gsp, the McCune-Albright syndrome mutation. gsp-mutant cells, cAMP HTRF, 30 min; control for the full effect not named in the record. Potency, µM (top dose mostly 76.9 µM), for inactives: at the top dose activity change, negative = inhibition, usual class: inhibitors. 340,000 compounds, 0.4% hits. AID 624288; active = falling curve of any shape with a large fitted effect; inconclusive = falling curve, mostly with a smaller effect; inactive = flat or rising curve; cell line not stated here;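 further: intracellular cAMP measured with PDE inhibitor Ro 20-1724 present during compound exposure; potency means the concentration at half of the fitted maximal effect; on the % scale 0 is the no-effect control and ±100 the full control effect; nearly all actives have a fitted effect of over 65% in size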
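HTRF cAMP read-out (cAMP-d2 plus anti-cAMP antibody-K in lysis buffer, 30 min RT). Before lysis, cells are exposed to compounds with […] for 30 min at 37C in DPBS containing Ca/Mg, BSA and Tween 20.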
The depositor's hits bear a star; ? = inconclusive; nt = no result given; & = joins results of further samples; [ ] = another dose, or the depositor's remark.

SMILES | TRPV1 PAM | gsp ag | TRPML1 inh | Sfp PPTase inh | Menin MLL FP FL | ClpP mod | gsp antagonist
Cc1cccc(OCCCC(=O)NC(C)c2ccccc2)c1 (centres undefined) | -25 | -34%[inhibitor] | -8 | -7% | 1.4 | -2.2% | -9%
Cc1ccnc(NC(=O)C2CCN(S(=O)(=O)c3c(C)c(C)cc(C)c3C)CC2)c1 | -1 | 10%[15.4 µM] | 9 | 10% | nt | -3.1% | -19%
O=C(NCCS(=O)(=O)N1CCN(Cc2ccccc2)CC1)c1ccccc1 | 4 | 18%[15.4 µM] | -11 | nt | nt | nt | 4%
Cc1[nH]c2ccccc2c1C(=O)C(=O)NC1CC1 | -3 | -15% | 5 | ? | nt | -0.4% | 8%
O=C(NCCSCc1ccco1)Nc1cccc(Cl)c1 | -13 | 0% | 11 | 6% | 6.2 | -2.2% | -19%
N/C(Cn1nnc(-c2ccccc2)n1)=N\O | -2 | -50%[inhibitor] | -14 | 22% | 0.2 | 1.5% | 13%
COC(=O)N/N=C/c1cccc([N+](=O)[O-])c1 | 2 | 13% | 39 | 18% | -0.1 | nt | 4%
CC(=O)c1cccc(NC(=O)COC(=O)c2cccs2)c1 | -1 | 5%[15.4 µM] | -2 | -17% | 4.4 | nt | 6%
C=C(C)COc1ccc(-c2[nH]ncc2-c2ccc(OC)c(OC)c2)c(O)c1 | 27 | 0% | 20 | 15% | 0.3 | -19% | 1%
Cc1ccc(C(=O)OCC(=O)NCc2ccc3c(c2)OCO3)s1 | -3 | -11% | 1 | 0% | -0.3 | 2.5% | 10%
Cc1ccccc1-n1c(=O)c(C#N)cc2c(=O)n3ccccc3nc21 | -1 | 18% | 6 | 22% | -6.9 | 21% | -3%
CCC[C@H]1COCCS(=O)(=O)N1Cc1ccc(Br)cc1 | 24 | nt | nt | 1% | -1.5 | -3.4% | nt
CN1C(C)(C)CCCC1(C)C | -5 | nt | 14 | 13%&11% | 0.1 | -1.6% | -10%
COc1cccc(/C(O)=C2/C(=O)C(=O)N(c3cc(C)on3)C2c2cccs2)c1 (centres undefined) | -9 | ? | 5 | 13% | 8.2 | 0.7% | -16%
N#C/C(=C\C1CC2C=CC1C2)c1nc2ccccc2[nH]1 (centres undefined) | -3 | 11% | -14 | -5% | ? | -29% | 3%
CCOc1cc(CNc2ccccc2)cc(Br)c1OCC(=O)NC(C)(C)C | 2 | -19% | 67 | -13% | 2.4 | -2.8% | -17%
CCOC(=O)/C(C(=Nc1ccccc1)Nc1ccccc1)=C(\C)O | -11 | 1% | 1 | 2% | -0.4 | -1.3% | 0%
CCc1cccc(C)c1NS(=O)(=O)c1cccs1 | 6 | 0%[15.4 µM] | 14 | 19% | -3.0 | nt | 18%
COc1ccc(C(=S)N2CCOCC2)cc1OC(=O)c1cc(OC)c(OC)c(OC)c1 | 8 | 23%[15.4 µM] | 0 | 45µM* | 2.2 | nt | 4%
COC(=O)c1c(NC(=O)CC2Nc3ccccc3NC2=O)sc(C)c1C (centres undefined) | nt | -44% | 6 | -2% | -3.0 | -1.3% | 9%
CC(Sc1nnc2n1CCCCC2)C(=O)Nc1ccc(S(N)(=O)=O)cc1 (centres undefined) | 12 | 11%[15.4 µM] | -2 | nt | nt | -1.2% | 7%
CCCC(=O)C1=C(O)C(C(=O)OC)C(C)(C)CC1=Nc1ccc(Br)cc1 (centres undefined) | nt | -1%[15.4 µM] | 16 | 0% | 1.0 | -3.7% | -12%
Cc1ccc(OCCn2c(SCCO)nc3c(N)ncnc32)cc1 | -15 | ? | 21 | 19% | 11 | 0.3% | -4%
COc1ccc2nc3c(cc2c1)c(NC(=O)C1CCCO1)nn3CC(C)C (centres undefined) | nt | -10% | -12 | 6% | 2.0 | 22µM* | -12%
CCOC(=O)c1c(NC(=O)CSc2nnc(-c3ccccc3)o2)sc(C(C)=O)c1C | 2 | ? | 0 | -3% | 0.6 | 1.1% | ?
(more compounds)
SMILES | TRPV1 PAM | gsp ag | TRPML1 inh | Sfp PPTase inh | Menin MLL FP FL | ClpP mod | gsp antagonist
Cc1ccc(NC(=O)CSc2nnc(NC(=O)c3ccc(S(=O)(=O)N4CCOCC4)cc3)s2)cc1 | 5 | -34%[inhibitor] | 2 | 11% | 8.5 | 175% | -10%
CN(C)c1ccc(/C=N/NC(=O)CN(c2ccccc2Cl)S(C)(=O)=O)cc1Br | 7 | -43% | -1 | 11% | -0.2 | -2.3% | 8%
Cc1nc2nc(-c3ccc(Cl)cc3)[nH]n2c(=O)c1C | -4 | nt | nt | 6% | 3.5 | nt | nt
CC1=CC2(C)C(C3C(C)=CC2(C)C(=O)C3(C)O)C(C)(O)C1=O (centres undefined) | nt | 2% | -16 | nt | nt | nt | 9%
O=C(NCc1cccc(OC(F)(F)F)c1)c1ccc2c(c1)S(=O)(=O)c1cc(Cl)ccc1C2=O | nt | -10% | 1 | nt | nt | 2.9% | -13%
CCC(C)n1c(=S)[nH]c2ccccc2c1=O (centres undefined) | -4 | 7%[15.4 µM] | 41 | 6% | -0.8 | nt | -4%
CC1=C(C(=O)OCC2CCCO2)C(c2ccccc2OC(C)C)C2=C(CC(c3ccco3)CC2=O)N1 (centres undefined) | 0 | -8% | 2 | -16% | -1.8 | ? | -3%
Cc1ccc(S(=O)(=O)CCC(=O)OCc2ccccc2F)cc1 | -25 | 5%[15.4 µM] | -5 | 17% | 2.9 | -0.1% | -2%
Cc1ccc(C2CC(c3cccs3)=NN2C(=O)CSC2=NN3CCCC(=O)N=C3S2)cc1 (centres undefined) | 28 | 17% | 4 | -8% | 0.8 | -22% | -9%
COc1cc2c(cc1OC)CN(Cc1ccc(OC)c(C)c1OC)CC2 | -41 | 7% | 6 | 0% | 1.0 | 4.3% | 9%
O=C(N1CCNCC1)N1CCOCC1 | -1 | nt | nt | 0% | 0.3 | nt | nt
O=C1NCCN/C1=C\C(=O)c1ccccc1 | -5 | -20% | 4 | 9% | 3.7 | -0.5% | 4%
Cc1ccc(C(=O)Cn2nnc(-c3ccccc3-n3cnnn3)n2)cc1 | 8 | -9% | 2 | 11% | 0.5 | -0.3% | -6%
c1ccc(CCCCNCC2COc3ccccc3O2)cc1 (centres undefined) | -3 | -3% | 18 | -10% | -2.1 | 0.9% | 12%
Cc1cc2nc(C3CCN(C(=S)NCC(C)C)CC3)[nH]c2cc1C | -1 | -150%[inhibitor] | -4 | 3% | -1.1 | -2.8% | 0%
COc1ccc(Nc2ccnc(Nc3ccc(OC)cc3)n2)cc1 | -7 | -15%[15.4 µM] | -14 | -86% | 5.6 | 1.1% | -24%
O=C(O)CC(C(=O)NC1CCCCC1)C1CCCO1 (centres undefined) | 7 | -24% | 1 | 7% | 5.2 | 107% | 11%
COCCSc1ccccc1C(=O)Nc1cc(C)ccn1 | 1 | -4% | 3 | 12% | -3.0 | -0.3% | 8%
CCOC(=O)c1c(C)n(C)c2cc(Br)c(C)cc12 | -3 | -39%[inhibitor] | 37 | -6% | 1.3 | -1.3% | -3%
O=S(=O)(NC1CC1)c1ccc(S(=O)(=O)N2CCN3CCCC3C2)cc1 (centres undefined) | ? | -1% | 2 | -12% | -1.2 | -1.2% | 1%
Cc1ccc(NC(=O)CSc2nccn2C)cc1F | -10 | -11% | -12 | 12% | nt | -2.0% | 3%
Cc1cc(S(=O)(=O)N2CCOCC2)ccc1OCC(=O)NCc1ccco1 | 14 | -56%[inhibitor] | 36 | 6% | -3.8 | nt | 4%
CCOC(=O)n1c(=O)n(Cc2c(Cl)cccc2Cl)c2ccccc21 | 6 | 0% | -12 | ? | -1.9 | -0.1% | -25%
CCCc1cc(=O)n2[nH]c(-c3cc(OC)c(OC)c(OC)c3)nc2n1 | -5 | -17% | -3 | 10% | 1.5 | -26% | -2%
COc1cccc(-c2cc(C(=O)N3CCN(c4ccccc4OC)CC3)no2)c1 | 6 | 4%[15.4 µM] | -15&16 | -6% | -0.7 | -11%&-0.5% | -6%
(further entries)
SMILES | TRPV1 PAM | gsp ag | TRPML1 inh | Sfp PPTase inh | Menin MLL FP FL | ClpP mod | gsp antagonist
COc1ccc(-c2nnc(SCC(=O)NC(=O)Cc3ccccc3)n2C)cc1 | 13 | -27% | 3 | nt | nt | -0.7% | -1%
COC(=O)c1c(NC(=O)COC(=O)Cn2cnc3ccccc32)sc(C)c1C | 4 | -17% | -1 | 1% | 1.7 | -9.3% | 5%
O=C(N/N=C/C=C/c1cccc([N+](=O)[O-])c1)C(O)c1ccccc1 (centres undefined) | 0 | -11% | 5 | 15% | 1.6 | -3.1% | -8%
Cc1ccc(S(=O)(=O)N2CCCC(C(=O)NCC3CCCO3)C2)cc1 (centres undefined) | 0 | 20%[15.4 µM] | ? | 15% | -0.4 | nt | -28%
CCn1cc(C(=O)OCC(=O)Nc2c(C)cccc2C)c(=O)c2ccc(C)nc21 | 7 | 2%[15.4 µM] | 8 | 8% | -0.2 | nt | 21%
CCCCn1c(C(C)NC(=O)COC)nc2ccccc21 (centres undefined) | -20 | ? | 9 | 14% | 2.2 | -2.1% | -1%
COc1ccc(C(=O)Nc2cc3c(cc2OC)CCCC3)cc1Br | 5 | 26% | 3 | -5% | 3.8 | -27% | -9%
CN1C(=O)C(O)(CC(=O)c2cccnc2)c2ccccc21 (centres undefined) | 3 | ? | 9 | 16% | 0.2 | -1.4% | 9%
O=S(=O)(NCCOc1ccccc1Cl)c1ccc2oc3ccccc3c2c1 | nt | -38%[inhibitor] | -3 | nt | nt | -8.3% | -12%
COc1cc2[nH]c(=O)n(CCCC(=O)NCCc3ccccc3)c(=O)c2cc1OC | -4 | 3%[15.4 µM] | 10 | 5% | 6.2 | -0.9% | -9%
CC(=O)Nc1ccc(S(=O)(=O)NNC(=O)c2ccc([N+](=O)[O-])cc2)cc1 | 7 | -62%[inhibitor] | 13 | -6% | -3.9 | -0.9% | 7%
O=C(C[C@H]1C/C=C\C[C@@H](Cc2ccc(F)cc2)C(=O)O[C@H](c2ccccc2)CNC1=O)NCCO | nt | nt | 9 | nt | nt | 0.8% | -10%
BrC(=C\c1ccccc1)/C=N/N1CCN(Cc2ccccc2)CC1 | -11 | -54%[inhibitor] | -3 | 2% | -10 | -2.6% | 5%[15.4 µM]
CC(=O)c1ccc2oc3ccccc3c(=O)c2c1 | 19 | nt | -13 | 16% | -7.9 | 0.1%&-3.2% | 10%
